D2 ag: human D2 receptor agonism in beta-arrestin assay; P14416; DiscoveRx PathHunter D2 beta-arrestin, luminescence, 90 min; 100% = 57 uM dopamine signal; activation, % (concentration not given with the values); 0.084% of 360,000 active; in the data active = activation above about 40%; inconclusive = about 15% to 40%; inactive = below about 15%; note: compound concentration not given in the record; the text of the record calls up to 30% inactive
Target sequence (P14416 whole entry, looked up): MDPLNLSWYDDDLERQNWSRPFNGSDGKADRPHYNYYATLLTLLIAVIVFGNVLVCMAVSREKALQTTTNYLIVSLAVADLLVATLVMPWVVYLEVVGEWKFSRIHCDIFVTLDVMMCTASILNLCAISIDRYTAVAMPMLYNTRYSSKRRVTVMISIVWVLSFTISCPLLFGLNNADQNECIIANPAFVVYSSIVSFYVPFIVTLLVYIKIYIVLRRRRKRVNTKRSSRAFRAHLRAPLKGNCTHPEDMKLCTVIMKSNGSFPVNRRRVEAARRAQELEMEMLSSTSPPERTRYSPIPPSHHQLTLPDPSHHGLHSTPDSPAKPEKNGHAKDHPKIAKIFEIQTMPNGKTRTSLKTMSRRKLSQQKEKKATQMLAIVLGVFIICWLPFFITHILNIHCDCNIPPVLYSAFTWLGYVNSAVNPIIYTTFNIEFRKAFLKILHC
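Agonist mode: compounds alone added to overnight-plated D2 PathHunter cells for 90 min at 37 C, with 57 uM final dopamine (EC100) defining full response. Beta-arrestin recruitment detected by chemiluminescent reagent, read after 1 h at ambient temperature.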
Six1-Eya2 blk: Six1/Eya2 interaction inhibition; AlphaScreen GST-Six1/His-Eya2 binding, biochemical; hits give low values; control for the full effect not named in the record; activity change, % (test concentration not listed); 0.56% of 360,000 active; in the data active = activity change below about -65%; inconclusive = about -30% to -65%; inactive = above about -30%; note: % is set by controls: 0 for no effect and ±100 for the full control effect; compound concentration not given in the record
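Compounds are tested against tagged Six1 and Eya2 proteins bridged by glutathione donor and nickel acceptor beads; after a one-hour incubation at 37 °C without light, AlphaScreen emission is recorded.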
CtBP-E1A blk: CtBP/E1A binding inhibition; AlphaScreen GST-E1A/His-CtBP binding, 1536-well; hits give low values; control for the full effect not named in the record; activity change, % (concentration not given with the values); 0.49% of 340,000 active; AID 651724; in the data active means activity change below about -65%; inconclusive means about -30% to -65%; inactive means above about -30%; note: % is set by controls: 0 for no effect and ±100 for the full control effect
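Steps: dispense buffer (Tris pH 8.0, NaCl 300 mM, TCEP 1 mM, BSA, Tween 20); add 5X protein mix (GST-E1A, His-CtBP, 125 nM each); pin 23 nL compound; 2 h at 37 °C, dark; add 5X beads (50 ug/mL); 1 h; read.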
gsp antagonist: antagonizes gsp, the McCune-Albright syndrome mutation; 0.4% of 340,000 active; gsp-mutant cells, cAMP HTRF, 30 min; control for the full effect not named in the record; Potency, µM (highest dose often 76.9 µM), for the others: top-dose activity change, negative = inhibition, usual class: inhibitors; active = falling curve of any shape with a large fitted effect; inconclusive = falling curve, mostly with a smaller effect; inactive = flat or rising curve; cell line not stated here;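 note: intracellular cAMP measured with PDE inhibitor Ro 20-1724 present during compound exposure; potency is the fitted concentration of half-maximal effect; % is set by controls: 0 for no effect and ±100 for the full control effect; nearly all actives have a fitted effect of over 65% in size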
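Cells in G418 medium, seeded 16-24 h, 37C; buffer exchange to DPBS + 1 mM CaCl2, 0.5 mM MgCl2, 0.05% BSA; cpds in DMSO + […] (300 uM stock), 30 min 37C; HTRF cAMP detection.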
gsp agonist: activates gsp, the McCune-Albright syndrome mutation. gsp mutant cells, cAMP HTRF, 30 min; control for the full effect not named in the record. Potency, µM (top dose mostly 76.9 µM), for the others: at the top dose activation (cAMP increase), actives largely listed as activators. 0.13% of 340,000 active. AID 624287; active = well fitted activation curve with a large enough effect; inconclusive = small, poorly fitted or top-dose-only effect, or another doubt; inactive = no such curve, though single readings can be large or run the other way; cell line not stated here;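 note: phosphodiesterase inhibitor Ro 20-1724 added with compounds to block cAMP breakdown; potency is the fitted concentration of half-maximal effect; nearly all actives have a fitted effect of over 60% in size; about a fifth of the inactives were tested at one dose only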
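Cells in DMEM/10% FBS with G418 were pretreated with compounds in DMSO plus […] (300 uM stock) for 30 min at 37C. cAMP was measured by HTRF (cAMP-d2 plus anti-cAMP antibody-K) after 30 min at room temperature.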
D2 potentiator: positive allosteric modulators of human D2 dopamine receptor. P14416. DiscoveRx D2 beta-arrestin cells, luminescence, 90 min; 100% = 57 uM dopamine signal. potentiation, % (concentration not given with the values). 0.23% of 360,000 active; active = potentiation of 50% or more; inconclusive = 30% to 50%; inactive = 30% or less;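 note: compound concentration not given in the record; tested on top of an EC20 dose of dopamine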
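D2 cells co-treated with compound plus 50 nM dopamine (EC20) for 90 min at 37 deg C to detect potentiation. Beta-arrestin recruitment was read as enzyme-fragment luminescence after 1 h at ambient temperature. Full response was set by 57 uM dopamine.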
* = called active by the depositor; ? = inconclusive; . = not tested or not shown; [ ] = dose if it differs, or a comment.

Values run as follows: D2 potentiator	D2 ag	Six1-Eya2 blk	gsp antagonist	gsp agonist	CtBP-E1A blk
COc1cc(/C=C(\C#N)C(=O)Nc2ccc(C(=O)O)cc2)ccc1OC(=O)c1cccc(F)c1
    0	-3.0	-6	-31%	26%	-20
COc1ccc(C[C@H](N)C(=O)N[C@H]2[C@@H](O)[C@H](n3cnc4c(N(C)C)ncnc43)O[C@@H]2CO)cc1
    -2	-4.9	3	-5%	.	9
CCOC(=O)c1nc(Nc2ccc(C(=O)O)cc2)c2ccccc2n1
    -21	-2.4	?	2%	-18%	?
COc1ccc2c(c1)SC(C)CC2=O (stereo not drawn)
    -6	-0.1	3	11%	-1%	5
CC(C)=CC(=O)N1CCC(Oc2cccc(C(=O)NCc3ccccn3)c2)CC1
    -3	0.9	3	.	29%	-17
O=C(N/N=C/c1ccsc1)c1c[nH]c2ccccc12
    -52	2.4	-18	-4%	-42%[inhibitor]	-22
CSc1ccc(CNCCCN(C)C)cc1
    10	-4.1	6	1%	22%	-5
Cc1ccc(S(=O)(=O)NCc2ccc(C(=O)NC3CCCCC3)cc2)cc1
    -10	-0.3	5	-5%	7%	1
CCn1c(SCC(=O)NC2CC2)nnc1-c1ccc(F)cc1
    8	2.1	5	3%	?	8
O=C(N/N=C/c1ccc2c(c1)OCO2)C(=O)Nc1ccccc1Cl
    -10	-0.8	21	16%	19%	-8
Cc1c(C(=O)NNC(=O)c2ccncc2)oc2ccccc12
    -3	-1.7	-1	-8%	14%	.
O=C(COc1cc2oc(=O)c3c(c2cc1Cl)CCCC3)N1C[C@H]2C[C@@H](C1)c1cccc(=O)n1C2
    -36	-11	0	-8%	.	-19
CCCNc1c(N)c(=O)c1=O
    -2	0.6	0	5%	12%	-12
CCOc1ccc(N2C(=O)C3ON(c4ccccc4)C(c4cccs4)C3C2=O)cc1 (stereo not drawn)
    -2	3.5	-2	-30%	5%[15.4 µM]	4
Cc1ccc(N2CCN(/N=C/C3=C(N4CCOCC4)C(=C\c4ccccc4)/CC3)CC2)cc1
    -3	-1.9	5	-2%	-10%	4
Nc1nnc(SCc2ccccc2F)s1
    -8	-2.0	0	2%	-1%	-7
C/C(O)=C(\C#N)P(=O)(c1ccccc1)c1ccccc1
    -4	-1.8	2	11%	9%[15.4 µM]	-1
O=C(NNC(=S)NC(=O)c1ccccc1)c1cccnc1
    -11	0.8	-2	-1%	-47%[inhibitor]	.
COc1ccccc1NC(=O)C(=O)/C=C(\O)c1ccccc1
    -7	-5.3	1	13%	1%[15.4 µM]	-3
CC1(c2ccccc2)NC(=O)N(CC(=O)Nc2ccc3c(c2)OCO3)C1=O (stereo not drawn)
    -6	2.9	-1	3%	8%	-2

(listing goes on)
Values run as follows: D2 potentiator	D2 ag	Six1-Eya2 blk	gsp antagonist	gsp agonist	CtBP-E1A blk
O=C(CSc1ccccc1)NC(=O)NCc1ccccc1
    -4	-5.2	-1	12%	16%	1
COCc1cc(C)nc(SCC[N+](C)(C)CC(=O)Nc2ccccc2)c1C#N
    -12	-0.7	-3	-6%	-6%[15.4 µM]	-17
COCCc1nc2ccc(C(=O)N3CCCC(CCCO)C3)cc2o1 (stereo not drawn)
    -8	1.0	1	16%	13%	3
CC1CCCC(NC(=O)NC(=O)COC(=O)C2=NN(c3ccccc3)C(=O)CC2)C1C (stereo not drawn)
    0	1.5	-2	-3%	?	15
O=C(NC1CCN(Cc2ccccc2)CC1)C1CCN(c2nnc(-n3cccc3)s2)CC1
    -8	-1.3	1	6%	?	-1
COc1ccc(CCN(C)C2CCCN(C(=O)CCSC)C2)cc1OC (stereo not drawn)
    0	-4.3	16	7%	-27%	1
CCCN(CCC)Cc1c(C(=O)N/N=C/c2ccco2)nnn1-c1nonc1N
    -3	3.0	-1	-21%	-9%[15.4 µM]	3
O=C(Nc1nnc(-c2ccccc2)o1)c1cc(Cl)sc1Cl
    10	-1.0	-5	4%	-32%[inhibitor]	-20
CN1CC(c2ccccc2Cl)C2(COc3ccccc3C2=O)C12C(=O)Nc1ccccc12 (stereo not drawn)
    -2	-4.3	-17	?	18%	-15
Cc1ccc2nc(NC(=O)C3CCN(S(=O)(=O)c4cccs4)CC3)sc2c1
    1	-0.3	-10	?	2%	-18
O=C1OCCC1Sc1nc2ccccc2c(=O)n1Cc1ccc(F)cc1 (stereo not drawn)
    5	-4.1	-1	-10%	13%[15.4 µM]	6
CCc1cc(=O)n2c([nH]c3ccccc32)c1C#N
    1	-2.9	-3	-1%	-14%	-4
CN(C(=O)COC(=O)c1cc(S(=O)(=O)N2CCOCC2)ccc1Cl)C1CCS(=O)(=O)C1 (stereo not drawn)
    ?	-3.6	5	10%	-3%	17
CO[C@@]1(NC(=O)CSCC#N)C(=O)N2C(C(=O)O)=C(CSc3nnnn3C)CS[C@@H]21
    -5	-9.4	-20	-1%	.	9
COC(=O)NC1CSCC1OC(=O)CCN1C(=O)c2ccccc2C1=O (stereo not drawn)
    -4	-1.4	3	-3%	1%	-5
Cc1cccc(OCC(=O)N2CCN(C(=O)CCC3CCCC3)CC2)c1
    19	-0.5	-4	-3%	5%	2
Cc1oc(-c2cccc(Cl)c2)nc1CN1CCCC(C(=O)NCCCN2CCOCC2)C1 (stereo not drawn)
    -30	-2.2	5	0%	?	1
CCN1CCN(C(=O)c2cc3c(s2)-c2c(C)cccc2OC3)CC1
    -9	-5.3	6	18%	1%	4
O=C1CC(N2CCSCC2)C(=O)N1CCc1ccccc1 (stereo not drawn)
    -5	-1.4	-1	2%	14%	4
COC(=O)c1c(C)nn(-c2ccccc2)c1N
    1	-4.0	1	9%	12%	4

(listing goes on)
Values run as follows: D2 potentiator	D2 ag	Six1-Eya2 blk	gsp antagonist	gsp agonist	CtBP-E1A blk
CC1(c2ccccc2Cl)NC(=O)N(CC(=O)Nc2ccc3c(c2)OCO3)C1=O (stereo not drawn)
    2	-5.0	-19	-3%	-10%[15.4 µM]	-24
CC(C)CCN1C(Nc2ccccc2)=NC[C@@H]1C
    -7	-0.3	0	10%	.	-5
CCOc1c(OC)cccc1C(=O)NCC1(c2ccccc2)CCCC1
    -3	-1.7	8	?	-27%	.
C/C(=N\Nc1cc(C)nc(NCc2ccccc2)n1)c1cccc([N+](=O)[O-])c1
    -11	-5.6	0	9%	-13%	4
Cc1ccc(N(C)C(=O)CN(C)S(=O)(=O)c2ccc3c(c2)n(C)c(=O)c(=O)n3C)cc1
    4	2.8	1	2%	?	.
COC(=O)C1C/C(=N\NS(=O)(=O)c2ccc(C)cc2)c2ccsc2C1 (stereo not drawn)
    8	-0.3	-2	-13%	-5%	4
COCCNC(=O)c1cccc(OC2CCN(Cc3cccc(C(C)=O)c3)CC2)c1
    -2	-6.4	1	2%	-6%	-2
Cc1cccc(Oc2ncnc3onc(C)c23)c1
    -19	1.7	2	4%	-13%	-2
COc1ccc(S(=O)(=O)Nc2cc(C)on2)cc1
    -2	-5.7	10	0%	13%[15.4 µM]	8
COc1cc2c(c(OC)c1OC)-c1ccc(SC)c(=O)cc1C(NC(=O)C(F)(F)F)CC2 (stereo not drawn)
    -15	1.3	-5	11%	?	0
O=C(Cc1n[nH]c(=O)c2ccccc12)Nc1cc(C(F)(F)F)ccc1-n1cncn1
    -4	-3.3	2	-4%	5%	1
Cc1cc(C(=O)CSc2ncccn2)c(C)n1Cc1ccco1
    9	-3.0	3	12%	-11%[15.4 µM]	1
Cc1cccc(C)c1NC(=O)CCS(=O)(=O)c1ccc(Br)cc1
    -5	-4.4	-1	1%	?	7
Clc1ccc(/C=N/c2c(-c3ccc(Cl)cc3)nc3n2CCS3)cc1
    -2	-5.8	19	9%	15%	0
CC1C(=O)N2CCCc3cc(NC(=O)c4ccccc4F)cc1c32 (stereo not drawn)
    -27	-3.8	-12	-10%	?	2
Cc1ccnc(NC(c2ccncc2)c2c(C)[nH]c3ccccc23)c1 (stereo not drawn)
    -16	-0.3	4	5%	4%	2
CCCc1ccc(OCc2nc(-c3ccc(NC(=O)c4cccs4)cc3)no2)cc1
    -3	2.8	1	-7%	8%	3
O=[N+]([O-])c1ccccc1Oc1ccccc1Cl
    -1	-1.9	-7	-1%	-5%[15.4 µM]	1
Cn1c(SCCN2CCCC2)nnc1C1CCN(S(=O)(=O)c2cccc(F)c2)CC1
    -28	-3.4	3	17%	-24%[15.4 µM]	0
COc1ccccc1CN(C)C(=O)CN1CCN(S(=O)(=O)c2ccc3c(c2)OCCCO3)CC1
    -3	-0.6	1	2%	-46%[inhibitor]	7

Later entries:
Values run as follows: D2 potentiator	D2 ag	Six1-Eya2 blk	gsp antagonist	gsp agonist	CtBP-E1A blk
NC(=O)NCC12CC3CC(CC(C3)C1)C2
    3	-1.0	2	8%	0%	7
O=C(NC(Cc1c[nH]c2ccccc12)C(=O)O)c1ccc2c(c1)OCO2 (stereo not drawn)
    -6	-7.7	2	10%	-14%	.
COc1ccc(-c2coc3c(C(=O)Nc4cccnc4)cccc23)c(C)c1
    -4	5.0	-11	.	.	-10
CC1(C)Cc2nc3oc4c(=O)n(CC(=O)Nc5cccc(Cl)c5)cnc4c3cc2CO1
    -6	-3.6	-1	3%	-10%[15.4 µM]	4
Cn1c(=O)c([N+](=O)[O-])c(NCC(O)c2ccccc2)c2ccccc21 (stereo not drawn)
    -28	-1.9	0	3%	4%	0
Cc1ccc(Cl)cc1NC(=S)NCc1cccn1C
    -17	-1.2	-15	6%	6%	-12
CN(C)C(=O)C1Cc2ccccc2CN1S(=O)(=O)c1cccs1 (stereo not drawn)
    -2	1.3	16	1%	-42%[inhibitor]	4

Filtered by structure, those above containing a nitro group on carbon
Values run as follows: D2 potentiator	D2 ag	Six1-Eya2 blk	gsp antagonist	gsp agonist	CtBP-E1A blk
C/C(=N\Nc1cc(C)nc(NCc2ccccc2)n1)c1cccc([N+](=O)[O-])c1
    -11	-5.6	0	9%	-13%	4
O=[N+]([O-])c1ccccc1Oc1ccccc1Cl
    -1	-1.9	-7	-1%	-5%[15.4 µM]	1
Cn1c(=O)c([N+](=O)[O-])c(NCC(O)c2ccccc2)c2ccccc21 (stereo not drawn)
    -28	-1.9	0	3%	4%	0

Source: PubChem
